# hIAP act: human IAP activators, primary screen, biochemical, luminescence, uHTS. Intestinal-type alkaline phosphatase (Homo sapiens), P09923. activation factor at 10 µM. purified human IAP, CDP-Star luminescence, 30 min; stronger effect = higher value; 1 = vehicle-only enzyme, 0 = enzyme-free background. hit rate 0.16% among 330,000;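 active means activation factor of the enzyme at least 2-fold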; further: the source names both 10 and 20 µM as test concentration; values of inactives mirror those of a sister screen read the other way
# Target sequence (P09923 whole entry, looked up): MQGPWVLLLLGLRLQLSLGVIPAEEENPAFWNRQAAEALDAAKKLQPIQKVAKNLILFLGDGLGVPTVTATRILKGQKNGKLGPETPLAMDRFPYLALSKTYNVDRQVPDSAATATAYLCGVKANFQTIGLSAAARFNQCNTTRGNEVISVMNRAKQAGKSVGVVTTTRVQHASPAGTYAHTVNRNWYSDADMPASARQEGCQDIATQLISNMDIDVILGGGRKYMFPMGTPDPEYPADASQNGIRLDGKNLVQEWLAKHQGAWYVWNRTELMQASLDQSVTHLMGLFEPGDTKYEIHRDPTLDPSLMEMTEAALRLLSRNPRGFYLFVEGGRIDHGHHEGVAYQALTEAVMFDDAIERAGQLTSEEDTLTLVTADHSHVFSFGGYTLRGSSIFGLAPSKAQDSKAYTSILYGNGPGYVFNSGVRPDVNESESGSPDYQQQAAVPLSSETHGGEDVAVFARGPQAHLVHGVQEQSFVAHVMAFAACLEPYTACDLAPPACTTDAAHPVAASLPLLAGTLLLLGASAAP
# A3A deaminase: APOBEC3A ssDNA deaminase inhibitors, primary screen, selectivity assay for APOBEC3G inhibitor project, biochemical, FAM/TAMRA oligo cleavage fluorescence; DNA dC->dU-editing enzyme APOBEC-3A (Homo sapiens), P31941; recombinant A3A, FAM/TAMRA ssDNA deamination fluorescence; inhibition, % at 20 µM; hit rate 0.41% among 330,000; AID 493011, 2011;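 active means at least 40% inhibition at 20 µM here, with at most 30% in a related deaminase screen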;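 further: plate controls were A3A with DMSO for no effect and wells lacking A3A enzyme for full effect; some results filed as inactive read as strong as hits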
# hIAP block: human IAP inhibitors, primary screen, biochemical, luminescence, uHTS. Intestinal-type alkaline phosphatase (Homo sapiens), P09923. purified IAP, CDP-Star luminescence, 30 min. inhibition, % at 10 µM. hit rate 0.12% among 330,000. AID 2544, 2010;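 active means inhibition reaching a set limit with compound at 10 µM in the primary screen, cut at about 35% in these data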;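 further: plate controls were DMSO wells with enzyme for no effect and no-enzyme buffer wells for full effect; values of inactives mirror those of a sister screen read the other way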
# APOBEC3G inh: APOBEC3G DNA deaminase inhibitors, primary screen, biochemical, fluorescence, single-stranded DNA substrate, uHTS; recombinant A3G, ssDNA deamination FAM/TAMRA fluorescence; inhibition, % at 20 µM; hit rate 0.28% among 330,000; AID 493012, 2011;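 active means inhibition of at least 40% at 20 µM, with no more than 30% in the related APOBEC3A deaminase screen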;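 further: plate controls were DMSO wells with A3G for no effect and wells lacking A3G enzyme for full effect; some compounds called inactive have numbers as strong as hits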
# SENP1 FRET inh: human SENP1 catalytic domain inhibitors, primary screen, biochemical, FRET, uHTS. Sentrin-specific protease 1 (Homo sapiens), Q9P0U3. recombinant SENP1 catalytic domain, CyPet-SUMO1-YPet FRET cleavage. inhibition, % at 10 µM. hit rate 0.21% among 360,000. AID 624204, 2012;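 active means inhibition at least 30% at 10 µM, raw YFP signal under a set limit, fluorescence ratio 0.5 to 1.5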;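 further: 0% = enzyme with DMSO and 100% = no enzyme wells; some results filed as inactive read as strong as hits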
#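 material = recombinant human SENP1 catalytic domain, His6-tagged | quantity = 20 pM enzyme | reagent = 25 nM SUMO1 FRET substrate | compound dosing = 10 µM single point, 0.5% DMSO | timing = 50 min enzyme reaction, room temperature, light-protected | detection = FRET, CFP and YFP emission | control set = no-enzyme low, enzyme-DMSO high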
# * hit, by the source's call. Some of the compounds tested, so the mix of outcomes need not match the whole.
entry	APOBEC3G inh	SENP1 FRET inh	hIAP act	A3A deaminase	hIAP block	molecule
1	-4.9	2.4	0.896	-4.1	10.4	O=C(/C=C/c1ccc(Cl)cc1)NCCc1ccccc1
2	-0.9	1.3	1.17	-5.2	-16.7	CC(=O)N1CCN(C(c2ccccc2)c2ccccc2)CC1
3	-4.5	-1.2	1.02	3.6	-1.7	O=C(O)c1cc(S(=O)(=O)N2CC=C(c3ccccc3)CC2)ccc1O
4	-7.6	-2.2	1.03	-7.9	-2.8	Clc1ccc(SCCOCCN2CCCCCC2)cc1
5	-7.6	1.6	0.99	-6.7	1.0	Cc1cccc(N2CCN(CC(O)COc3ccc(Cl)cc3)CC2)c1 (stereo not given)
6	-3.8	0.3	0.926	-1.9	7.4	Cc1nc2ccccc2c(-c2ccccc2)c1CC(=O)O
7	-0.2	2.1	1.16	3.7	-15.7	O=[N+]([O-])c1cccc(/C=N/Nc2nc(NCc3ccccc3)nc(N3CCOCC3)n2)c1O
8	-3.7	0.4	0.968	-1.6	3.2	CCCC(=O)c1ccc(O)cc1O
9	1.5	-2.6	1.14	-4.1	-14.0	Oc1cc2c(c(Cl)c1O)CCNCC2c1ccccc1 (stereo not given)
10	-7.0	2.9	0.839	-4.9	16.1	Cc1cccn2c(=O)c(C(=O)NCCCN3CC(C)CC(C)C3)c(O)nc12 (stereo not given)

# Five compounds picked at random from the list so far:
entry	APOBEC3G inh	SENP1 FRET inh	hIAP act	A3A deaminase	hIAP block	molecule
5	-7.6	1.6	0.99	-6.7	1.0	Cc1cccc(N2CCN(CC(O)COc3ccc(Cl)cc3)CC2)c1 (stereo not given)
1	-4.9	2.4	0.896	-4.1	10.4	O=C(/C=C/c1ccc(Cl)cc1)NCCc1ccccc1
6	-3.8	0.3	0.926	-1.9	7.4	Cc1nc2ccccc2c(-c2ccccc2)c1CC(=O)O
3	-4.5	-1.2	1.02	3.6	-1.7	O=C(O)c1cc(S(=O)(=O)N2CC=C(c3ccccc3)CC2)ccc1O
9	1.5	-2.6	1.14	-4.1	-14.0	Oc1cc2c(c(Cl)c1O)CCNCC2c1ccccc1 (stereo not given)

# Of the compounds above, these have a COOH group.
entry	APOBEC3G inh	SENP1 FRET inh	hIAP act	A3A deaminase	hIAP block	molecule
3	-4.5	-1.2	1.02	3.6	-1.7	O=C(O)c1cc(S(=O)(=O)N2CC=C(c3ccccc3)CC2)ccc1O
6	-3.8	0.3	0.926	-1.9	7.4	Cc1nc2ccccc2c(-c2ccccc2)c1CC(=O)O

# Some of these compounds in order of molecular weight, low to high.
entry	APOBEC3G inh	SENP1 FRET inh	hIAP act	A3A deaminase	hIAP block	molecule
9	1.5	-2.6	1.14	-4.1	-14.0	Oc1cc2c(c(Cl)c1O)CCNCC2c1ccccc1 (stereo not given)
4	-7.6	-2.2	1.03	-7.9	-2.8	Clc1ccc(SCCOCCN2CCCCCC2)cc1
3	-4.5	-1.2	1.02	3.6	-1.7	O=C(O)c1cc(S(=O)(=O)N2CC=C(c3ccccc3)CC2)ccc1O

# Screening results as filed in PubChem BioAssay.
